From PubChem
PrP 5UTR inh = inhibition of PrP 5' UTR reporter expression | cell-based PrP 5' UTR mRNA reporter, plate reader | inhibition, % (concentration not given with the values) | 340,000 tested, 0.35% active;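 active = every replicate at 50% or more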;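 note: 0 = median of the neutral control wells; tested in H4 reporter cells; numbers are from one replicate; inactives centre near -14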
Mtb hypoxia inh = PubChem AID 1159583 | 300,000 tested, 0.1% active | fluorescence inhibition, % (concentration not given with the values) | M. tuberculosis hypoxia-regulated fluorescent reporter, fluorescence;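 active = 35 to 45% if threefold the growth effect, above 45% if 1.5-fold the growth effect; inactive = the rest, general growth blockers included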;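 note: wells of about 50 µL received 100 nL stock; 0% = vehicle wells and 100% = reference inhibitor wells; whole bacteria with a GFP reporter of the hypoxia response; strong numbers were not always called active; many hits fall short of the cut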
BJeLR lethal = MLPCN primary cell-based screen for lethality selective to Ras in HRASV12 cells; BJeLR (HRASV12) viability, CellTiter-Glo ATP luminescence, 48 h; reference of the scale not given here; inhibition, % (test concentration not listed); 300,000 tested, 0.17% active; AID 1554, 2009;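 active = replicate mean above 50%; inconclusive = above 50% but judged a plate artefact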;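 note: 50 nL library stock added to about 25 µL; numbers are from one replicate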
Bead autofluor = counter-screen for toxin protease inhibitors: compound fluorescence | 360,000 tested, 3.1% active | AID 624483 | fluorescence intensity (concentration not given with the values) | compound autofluorescence counterscreen, microsphere flow cytometry; hits give high values;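 active = at least 3 SD above the mean of all compounds, about 16000 in these data; inconclusive = too few beads counted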;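 note: 100 nL of 1 mM stock went into each well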
Sa RN4220 lethal = growth inhibition of S. aureus RN4220, primary screen, OD600. 330,000 tested, 0.33% active. 16 h. inhibition, % (test concentration not listed);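 active = z-score of -3 or lower and OD600 up to 0.18 on both plates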;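 note: plate controls were untreated cells for no effect and reference antibiotic for full effect; stock transfer was 100 nL into about 80 µL; one replicate is shown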
ugtP null kill = growth inhibition of ugtP-null S. aureus, primary screen, RN4220 ugtP deletion, OD600. 330,000 tested, 0.54% active. 16 h; some inactives read as strong as hits. growth inhibition, % (concentration not given with the values);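 active = z-score under -3 and OD600 up to 0.15 on both plates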;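 note: plate controls were untreated wells for no effect and antibiotic for full effect; wells of about 80 µL received 100 nL stock; the first replicate is given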
Mtb hypoxia inh growth = second read-out of Mtb hypoxia inh, no call of its own (marks repeat the call); growth inhibition, %; measured here: M. tuberculosis growth (absorbance);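 0% = vehicle and 100% = reference antibiotic; read after six days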
Starred values were filed as active, the others as inactive; ? = inconclusive; · = not tested or not shown.

mol	PrP 5UTR inh	Mtb hypoxia inh	Mtb hypoxia inh growth	BJeLR lethal	Bead autofluor	Sa RN4220 lethal	ugtP null kill
CC(C)CCNC(=O)CN(C)S(=O)(=O)c1cccc2nsnc12	-18	9	8	-1	4158	7.6	5
c1csc(CNc2ncnc3ccc(-c4ccc5c(c4)OCCO5)cc23)c1	-3	10	7	·	2898	-17	-24
CCOc1cc(S(=O)(=O)NCc2ccccn2)c(C)cc1C	·	1	6	-5	·	4.6	-10
COc1c(F)c(F)c(C(=O)Nc2c(C)cc(Br)cc2C)c(F)c1F	5	-1	8	-3	4475	13	9
O=C(NC(=S)Nc1cc(C(F)(F)F)ccc1N1CCOCC1)c1ccc(-c2cccc(Cl)c2)o1	-32	-1	2	9	2428	9.9	-9
CS(=O)(=O)N1N=C(c2ccco2)CC1c1ccco1 (configuration not stated)	-11	10	1	-8	3525	6.0	0
CCCCn1c(SCC(=O)Nc2ccc(NC(C)=O)cc2)nc2ccccc2c1=O	-45	·	·	-1	3719	·	·
O=C(OCC(=O)N(CCc1ccccc1)Cc1ccccc1)c1cc(S(=O)(=O)N2CCOCC2)ccc1F	-16	11	6	-3	4597	-1.3	1
COCCNC(=O)c1ccccc1NC(=O)c1ccc(OC)c(OC)c1	6	1	-1	-6	9103	1.9	2
Cc1ccc2nc(SCC(=O)Nc3ccccc3N3CCOCC3)c(C#N)cc2c1	-10	·	·	8	3109	0.9	4
C#CCOc1c(Cl)cc(/C=N/O)cc1OC	-17	·	·	-14	2019	·	·
COc1cccc(NC(=O)C2CCC(CNS(=O)(=O)c3cccs3)CC2)c1 (configuration not stated)	-10	-1	1	5	3876	4.1	0
C=CCn1c(O)c(N=Nc2c(C)n(C)n(-c3ccccc3)c2=O)c(=O)[nH]c1=S	-13	3	0	3	2058	3.4	-8
CC(C)OCC1Cn2c(nc3c2c(=O)n(C)c(=O)n3C)O1 (configuration not stated)	-80	9	0	6	4764	4.9	6
Fc1cccc2sc(N3CCOCC3)nc12	-29	7	20	10	4517	5.5	3
Cc1ccc(NC(=O)CN2CCCCCC2)cc1Br	-18	1	9	-3	3533	-1.4	2
CC(C)OC(=O)c1cc(NC(=O)C2C3C=CC(O3)C2C(=O)O)cc(C(=O)OC(C)C)c1 (configuration not stated)	-7	2	2	-1	3016	2.4	7
CCN(c1ccc(OC)cc1)c1ncnc2nc[nH]c12	25	7	4	2	5605	9.3	12
CC1C(=O)NN=C1C(=O)NN=Cc1cccs1 (configuration not stated)	·	0	11	·	·	3.2	2
Cc1cc(C)c(-c2csc(NC(=O)COC(=O)c3ccc4c(c3)OCO4)n2)c(C)c1	-14	18	3	5	2330	-2.7	3
COc1ccc(NC(=O)Cc2c(C)n(C(=O)c3ccc(Cl)cc3)c3ccc(OC)cc23)cc1	-9	-3	-11	2	2768	-4.5	1
CCOC(=O)C1=C(C)N=c2s/c(=C/c3ccccc3)c(=O)n2C1c1ccc(OC)c(OC)c1 (configuration not stated)	-5	·	·	9	4789	·	·
COc1ccc(S(=O)(=O)NCCOc2ccccc2)cc1OC	-16	2	3	6	22108*	6.4	8
COc1ccc(NC(=O)c2ccc(NC(=O)CN3CCC(C(N)=O)CC3)cc2)cc1	-35	7	8	·	4101	6.4	-2
COc1cccc(NC(=O)c2cccc(C)c2[N+](=O)[O-])c1	-39	15	13	8	2516	5.2	-1
O=C(O)C1(Nc2ccccc2Cl)CCCC1	-16	11	6	·	4038	3.3	3
COc1ccc(NC(=O)c2ccc(-c3ccccc3)cc2)cc1S(=O)(=O)N1CCOCC1	-22	-4	3	4	3263	4.6	10
O=C(O)C1(c2ccc(Cl)cc2)CCC1	-19	5	11	5	3088	-15	1
O=C(CN1CCC(n2nnc3ccccc32)CC1)NCc1cccs1	-22	8	13	1	4181	0.4	9
CCc1c(C(=O)NN=Cc2cccs2)nnn1-c1nonc1N	·	4	-4	·	·	-5.2	-2
CCOc1ccc2[nH]cc(C(=O)NCc3ccccc3)c(=O)c2c1	-6	7	0	1	4167	8.7	-6
O=C(COC(=O)CCSc1ccccc1)Nc1ccc(F)cc1Cl	-32	8	6	8	2613	0.7	8
COc1cc(C(C)=O)ccc1OCC(=O)N(CCC1=CCCCC1)c1c(N)n(Cc2ccccc2)c(=O)[nH]c1=O	2	5	1	-2	·	5.8	0
COc1ccc(N2CCN(C(=O)CN(c3ccccc3)S(C)(=O)=O)CC2)cc1	-43	1	2	-7	3411	5.7	1
O=c1oc2ccccc2cc1-c1ccc(O)cc1	-77	11	7	-7	2013	6.8	-3
O=C(O)CNc1nc(Cl)ccc1[N+](=O)[O-]	-15	·	·	-11	?	4.7	4
COCCn1c(C)cc(/C=C(\C#N)C(=O)OCC(=O)Nc2ccc(S(N)(=O)=O)cc2)c1C	-7	7	1	·	5406	0.2	3
C/C(=N\NC1=NCCN1)c1ccccc1	-19	·	·	8	6147	·	·
O=C(Cc1ccccc1[N+](=O)[O-])OCC(=O)c1c[nH]c2ccccc12	-79	10	5	-6	5269	6.0	5
Cc1cc(C)c2nc(C)cc(Nc3ccc(C(=O)NCCO)cc3)c2c1	-69	0	12	1	·	-0.1	6
CC(=O)NC(CCS(C)(=O)=O)C(=O)N1CCc2ccccc21 (configuration not stated)	-11	10	8	-3	10549	7.8	4
CCCc1c(C(=O)N2CCN(c3ccccc3OC)CC2)cnn1-c1ccccc1	-27	21	2	2	4301	4.2	11
O=C(CSc1ccccc1)NCCSCc1ccccc1	-16	8	9	4	2116	-0.5	4
Cc1ccc(NC(=O)N2CCCC2C(=O)Nc2ccc3c(c2)OCCO3)cc1 (configuration not stated)	6	·	·	-7	2944	·	·
CSc1ncccc1C(=O)OCC(=O)c1ccc(C)s1	-29	15	7	·	3988	22	15
Cc1cc2nnc(SCC(=O)N3CCOCC3)n2c2ccccc12	-7	8	5	1	4252	7.9	6
CCCCc1cc(=O)oc2c(CN(C)C)c(O)c(Cl)cc12	-40	7	-2	·	23705*	8.9	-1
O=C(C[n+]1ccccc1)NN=Cc1ccc(O)cc1	·	13	-2	·	·	4.4	8
C/C=C(\C)CN1CCC(n2nccc2NC(=O)c2ccc(OC)cc2)CC1	-8	2	7	0	5431	4.5	10
CC(NCCO)C(=O)C12CC3CC(CC(C3)C1)C2 (configuration not stated)	3	4	1	0	3172	-0.4	-6
COc1cccc(C(=O)Nc2ccc(NC(=O)C(C)C)nc2)c1	-24	·	·	5	4910	-3.9	4
CN(C)Cc1cccc([N+](=O)[O-])c1O	-20	7	1	4	4458	-0.4	0
CC(=O)c1sc(NC(=O)CCN2C(=O)C3CC=CCC3C2=O)nc1-c1ccccc1 (configuration not stated)	-19	-2	2	·	9084	9.8	9
COc1cc(CNCC(O)c2ccccc2)ccc1OCc1ccc(Cl)nc1 (configuration not stated)	-19	10	6	5	3437	18	16
COCCNC(=O)c1ccccc1NC(=O)Cc1ccccc1[N+](=O)[O-]	-8	6	7	1	3461	1.5	-5
O=S(=O)(NCCc1ccncc1)c1ccccc1	-15	9	6	-1	3015	5.0	17
Cc1ccc(C(=O)N2CCN(c3ccc(C(F)(F)F)cn3)CC2)c(C)c1	-29	·	·	4	2621	1.4	3
CCn1c(C)nc2cc(C(=O)NNC(=O)c3ccc(Cl)nc3)ccc21	-15	3	-7	4	4319	6.5	3
O=C(Cc1n[nH]c(=O)c2ccccc12)NCc1ccccn1	-8	0	3	-6	3650	2.5	1
CCOC(=O)c1cnc(SCC(=O)NNC(=O)c2ccco2)nc1N	-15	13	2	0	3903	1.5	-2

(listing goes on)
mol	PrP 5UTR inh	Mtb hypoxia inh	Mtb hypoxia inh growth	BJeLR lethal	Bead autofluor	Sa RN4220 lethal	ugtP null kill
NC(=NOC(=O)Nc1ccc(Cl)cc1)c1ncc(C(F)(F)F)cc1Cl	·	8	0	·	·	0.1	-25
CN1CCN(CCCNC(=O)CCN2C(=O)COc3ccccc32)CC1	-17	15	2	12	5441	0.6	5
COc1cccc(OCC(=O)N(C)Cc2nc(-c3cccc(C)c3)no2)c1	-8	2	-6	-3	2968	4.6	6
Cc1ccc(C(C)C)cc1OCCn1cncn1	-27	13	4	6	4179	5.3	3
O=C1c2cccnc2C(=O)N1Cc1cccs1	1	6	5	-8	4947	1.9	12
COc1ccc(OCC(=O)Nc2ccccc2-c2ccccc2)cc1	-27	-2	2	3	3412	-0.1	5
COC(=O)C1=C(c2ccc(C(C)=O)cc2)CC2CCC1N2C(=O)N1CCC(C)CC1 (configuration not stated)	·	11	-5	·	·	5.7	1
COc1ccc(CNC(=O)/C(C#N)=C2\N=C(NC(=O)c3cccs3)c3ccccc32)cc1	-27	4	7	7	2846	1.7	-9
O=C(Nc1cccc(C(F)(F)F)c1)Oc1ccc(Cl)c2cccnc12	-4	·	·	12	3162	·	·
CC(=NNc1ccccn1)c1ccc2c(c1)OCO2	·	2	2	·	·	4.3	-1
Cc1ccc(S(=O)(=O)N2CCN(S(=O)(=O)N3CCOCC3)CC2)cc1C	-28	15	4	3	16305*	1.1	4
CCOC(=O)C(Cc1ccccc1)NC(=O)CCc1nnc2ccc(N3CCOCC3)nn12 (configuration not stated)	-17	14	0	0	4202	6.7	3
c1ccc(-c2c3ccccc3nc3[nH]c4ccccc4c23)cc1	-4	·	·	-5	2811	·	·
Cc1nn2c(NCCCN(C)C)c3c(nc2c1-c1ccccc1)CCCC3	-8	16	10	0	6312	-2.5	6
O=C(NCc1ccco1)c1cccc(S(=O)(=O)N2CCCC2)c1	-6	11	13	-8	3677	3.1	5
Cc1ccccc1OCCNC(=O)c1ccc2ccccc2n1	-35	4	0	-1	11633	8.3	-5
O=c1nc(N(c2ccccc2)c2ccccc2)[nH]c(=O)[nH]1	-22	12	9	-2	20223*	2.9	7
CN(C)C(=O)CCC(=O)N(C)CC1CCCN(CCc2ccc(F)cc2)C1 (configuration not stated)	-57	-6	9	-2	3591	-1.1	7
O=C(Oc1ccc(Cl)c2cccnc12)N1CCCCCC1	-11	20	-15	6	3230	-11	-4
CCCC(=O)N1CCN(c2ccc([N+](=O)[O-])cc2Cl)CC1	-14	-4	10	-6	2348	6.5	-2
O=C(N/N=C/c1ccccc1C(=O)O)c1ccccc1Br	-18	·	·	-7	4414	·	·
